Lassa entry inh – Lassa virus entry inhibition; Potency, µM (highest dose often 37.9 µM), without a hit: top-dose activity change, negative = inhibition, hits mostly inhibitors; Lassa virus pseudotype entry inhibition, cell reporter; control for the full effect not named in the record; hit rate 1.2% among 300,000; active means well fitted inhibition curve with a large enough effect; inconclusive means small, poorly fitted or top-dose-only effect, or effect the other way; inactive means flat fitted curve, though single readings scatter; tested in HEK293 cells; also: % is scaled to controls: 0 for no effect and ±100 for the full control effect; nearly all actives have a fitted effect of over 50% in size; luciferase read-out
Cruzain inh Det – cruzain (T. cruzi) inhibition with detergent. purified cruzain, Z-FR-AMC fluorescence, 0.01% Triton. Potency, µM, for inactives: max response, negative = inhibition, usual class: inhibitors. hit rate 0.43% among 200,000. P25779; active = well fitted curve in the direction sought with a large enough effect; inconclusive = small, poorly fitted or top-dose-only effect, or another doubt; inactive = no such curve, though single readings can be large; an effect the other way counts as inactive or inconclusive;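 also: plate controls were neutral wells for no effect and buffer without enzyme for full effect; nearly all actives have a fitted effect of over 40% in size; top concentration of the series not given in the record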
Target sequence (P25779 123-467 limits assumed): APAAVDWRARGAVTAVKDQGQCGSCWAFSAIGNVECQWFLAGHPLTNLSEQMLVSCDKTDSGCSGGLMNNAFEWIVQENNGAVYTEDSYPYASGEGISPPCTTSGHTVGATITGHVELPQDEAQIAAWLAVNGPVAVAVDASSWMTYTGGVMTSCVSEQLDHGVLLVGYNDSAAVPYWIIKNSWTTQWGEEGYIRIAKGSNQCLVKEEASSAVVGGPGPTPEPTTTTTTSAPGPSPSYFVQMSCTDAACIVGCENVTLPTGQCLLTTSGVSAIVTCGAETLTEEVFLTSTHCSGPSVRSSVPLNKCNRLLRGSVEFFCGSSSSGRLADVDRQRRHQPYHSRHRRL
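In this qHTS format, compounds are incubated with 1.5 nM cruzain for 15 min at room temperature before 2 uM Z-FR-AMC is added. Release of AMC is followed at 360/450 nm, and progress is taken as the 60 s fluorescence difference.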
SARS PLP yeast – blocks SARS-CoV papain-like protease in a yeast assay. Potency, µM (doses to about 32.9 µM), inactives show top-dose activity, positive = growth rescue. S. cerevisiae expressing SARS-CoV PLpro, growth rescue; control for the full effect not named in the record. hit rate 0.19% among 330,000; also: 0% is about no effect; nearly all actives have a fitted effect of over 55% in size; growth read by luminescence after 48 h
2A StopGo – lowers the luciferase signal of an FMDV 2A StopGo reporter; human cells with a luciferase reporter of 2A StopGo recoding; control for the full effect not named in the record; Potency, µM (titrated, usually from 57.9 µM), for inactives: at the highest dose signal change, negative = less light; hit rate 1.2% among 410,000; AID 1159524; active = well fitted falling curve with a large enough effect; inconclusive = small, poorly fitted or top-dose-only effect; inactive = no such curve, though single readings can be large or run the other way; tested in HEK293T cells; also: % is scaled to controls: 0 for no effect and ±100 for the full control effect; nearly all actives have a fitted effect of over 45% in size; luciferase light after 4 h
NS1 inh – inhibitors of influenza NS1 protein function | AID 2326 | S. cerevisiae slowed by influenza A NS1, growth recovery by OD600 | hit rate 0.4% among 270,000 | Potency, µM (titrated, usually from 46.1 µM), for inactives: top-dose activity, positive = more growth; also: actives are rising curves; nearly all actives have a fitted effect of over 50% in size
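In this qHTS, NS1 from influenza A is expressed in budding yeast, where it slows growth. Cells are switched from glucose to 2% galactose medium (pH 6.0, -URA), treated with compound, and growth recovery is read at OD600.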
Cruzain inh noDet – inhibitors of Trypanosoma cruzi cruzain without detergent; purified cruzain, Z-FR-AMC fluorescence, no detergent; Potency, µM, for the others: max response, negative = inhibition, hits mostly inhibitors; hit rate 2.3% among 200,000; active = well fitted curve in the direction sought with a large enough effect; inconclusive = small, poorly fitted or top-dose-only effect, or another doubt; inactive = no such curve, though single readings can be large; an effect the other way counts as inactive or inconclusive;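 also: plate controls were enzyme without inhibitor for no effect and buffer without enzyme for full effect; nearly all actives have a fitted effect of over 40% in size; top concentration of the series not given in the record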
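Detergent-free condition (0.00005% Triton X-100) in acetate buffer pH 5.5 with DTT. 1.5 nM enzyme and compound were pre-mixed 15 min, then 2 uM Z-FR-AMC substrate added; reaction progress from fluorescence change between first and third reads (60 s).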
Marburg entry inh – inhibitors of Marburg virus binding or cell entry. Potency, µM (top dose mostly 37.8 µM), inactives show at the top dose activity change, negative = inhibition, hits mostly inhibitors. Marburg virus pseudotyped entry inhibition, cell reporter; control for the full effect not named in the record; about a third of the inactives were read at about 46 µM. hit rate 1.8% among 300,000. AID 540276; active = well fitted inhibition curve with a large enough effect; inconclusive = small, poorly fitted or top-dose-only effect, or effect the other way; inactive = flat fitted curve, though single readings scatter; tested in HEK293 cells; about a fifth of its hits are not listed in these tables; also: % is scaled to controls: 0 for no effect and ±100 for the full control effect; luciferase read-out
RE007 growth inh – less growth of the S. pombe RE007 Vpr strain | S. pombe RE007 Vpr strain, BacTiter-Glo ATP luminescence, 24 h; control for the full effect not named in the record | Potency, µM (highest dose often 92.2 µM), for inactives: at the highest dose activity change, negative = less growth | hit rate 0.21% among 360,000; active = well fitted falling curve with a large enough effect; inconclusive = small, poorly fitted or top-dose-only effect; inactive = no such curve, though single readings can be large or run the other way;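 also: % is scaled to controls: 0 for no effect and ±100 for the full control effect; nearly all actives have a fitted effect of over 50% in size; the assay follows cell death caused by Vpr and the record does not say whether a fall means rescue or toxicity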
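Fission yeast RE007 carrying one integrated HIV-1 vpr copy, seeded at OD 0.01 in PMG+AL medium with 23 nL pinned compound. Grown 24 h at 30 degrees; viability read by BacTiter-Glo luminescence after 5 min.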
Starred values were filed as active, the others as inactive; & = joins results of further samples; [ ] = dose if it differs, or a comment. Unless noted, calls follow the shape of the dose curve; as a rule, active means well fitted rising curve with a large enough effect; inconclusive means small, poorly fitted or top-dose-only effect; inactive means no such curve, though single readings can be large or run the other way. Potency is read from the fitted curve at half-maximal effect.

Screening Cc1nc2c(S(=O)(=O)c3ccccc3)cnn2c(C)c1C returned Lassa entry inh 4%, SARS PLP yeast 2%, 2A StopGo 7%, Marburg entry inh inconclusive and RE007 growth inh 14%.
`Cc1ccc(C(=O)CN(C(=O)c2ccc(Cl)cc2)N2C(=O)c3ccccc3C2=O)cc1` gave Lassa entry inh 27%[14.3 µM], Cruzain inh Det 0.4%, SARS PLP yeast 4%, 2A StopGo -4%, NS1 inh 5%, Cruzain inh noDet inconclusive, Marburg entry inh 4% and RE007 growth inh 1%.
For CNC(=O)c1ccccc1S(=O)c1ccccc1COC(C)=O (centres undefined) the results were Lassa entry inh 13%, SARS PLP yeast 1%, 2A StopGo -14%, NS1 inh 0%, Marburg entry inh inconclusive and RE007 growth inh 23%.
For CCS(=O)(=O)NCCc1cc2c(OC)ccc(OC)c2[nH]c1=O the results were Lassa entry inh 18%, Cruzain inh Det 0.6%, SARS PLP yeast 3%, 2A StopGo -8%, NS1 inh -1%, Cruzain inh noDet -2%, Marburg entry inh -9% and RE007 growth inh 13%.
Screening O=C(Cc1ccc(Cl)cc1)Nc1ccc2oc(-c3ccc(F)cc3)nc2c1 returned Lassa entry inh 3%[46.1 µM], Cruzain inh Det -0.4%, 2A StopGo 14% and Cruzain inh noDet inconclusive.
For CC(=O)c1ccc(-n2nncc2C)cc1 the results were Lassa entry inh 0%, Cruzain inh Det 4.9%, SARS PLP yeast -5%, 2A StopGo 9%, NS1 inh -5%, Cruzain inh noDet -9%, Marburg entry inh -2% and RE007 growth inh 19%.
`CCOc1ccc(N2CC(C(=O)OCC(=O)NCc3ccccc3)CC2=O)cc1` (centres undefined) gave Lassa entry inh 2%, Cruzain inh Det -0.1%, SARS PLP yeast 3%, NS1 inh -2%, Cruzain inh noDet 9%, Marburg entry inh 18% and RE007 growth inh 7%.
Cc1cccc(OCc2n[nH]c(=S)o2)c1C was read as SARS PLP yeast -1%, 2A StopGo 5%, NS1 inh -4% and RE007 growth inh -15%.
Cn1c(=O)c2c(nc(OC3CCCCCC3)n2C)n(C)c1=O was read as Lassa entry inh inconclusive, 2A StopGo -19%, Marburg entry inh -1% and RE007 growth inh 17%.
`CCc1ccccc1NC(=O)C1CCCN1S(=O)(=O)c1ccc2c(c1)n(C)c(=O)c(=O)n2C` (centres undefined) gave SARS PLP yeast 4%, 2A StopGo 3%, NS1 inh 3% and RE007 growth inh 8%.
`COc1ccc2c(c1)c1ncn(CCCN3CCOCC3)c(=O)c1n2C` gave Lassa entry inh 0%, Cruzain inh Det -12%, SARS PLP yeast 0%, 2A StopGo 6%, NS1 inh 9%, Cruzain inh noDet -28%, Marburg entry inh 9% and RE007 growth inh 8%.
`CS(=O)(=O)c1ccccc1C(=O)N1CCN(Cc2ccccc2)CC1` gave Lassa entry inh -24%[46.1 µM], SARS PLP yeast 0%, 2A StopGo -2%, Marburg entry inh 9%[46.1 µM] and RE007 growth inh 5%.
`COc1ccc(S(=O)(=O)NCC2CCCN(C(=O)CCC(F)(F)F)C2)cc1` (centres undefined) gave SARS PLP yeast 0%, 2A StopGo 60%[activator], NS1 inh 17% and RE007 growth inh -2%.
For COc1cc(OC)cc(C(=O)OCn2nnc3ccccc3c2=O)c1 the results were Lassa entry inh 18%, Cruzain inh Det -4.9%, SARS PLP yeast 17%, 2A StopGo -21%, NS1 inh -12%, Cruzain inh noDet -15%, Marburg entry inh -9% and RE007 growth inh 3%.
`O=C(NCCn1ccc2ccccc21)c1ccc2c(c1)OCO2` gave Cruzain inh Det -4.5%, SARS PLP yeast -13%, 2A StopGo 26%, NS1 inh -1%, Cruzain inh noDet -33% and RE007 growth inh 9%.
`Cc1csc2nc(CCNS(=O)(=O)c3ccc4c(c3)OCCO4)cn12` gave Cruzain inh Det -1.3%, SARS PLP yeast -10%, 2A StopGo -20%, NS1 inh -2%, Cruzain inh noDet inconclusive and RE007 growth inh -1%.
For C[C@]12CC[C@@H]3c4ccc(O)c(O)c4CC[C@H]3[C@@H]1CC[C@@H]2O the results were SARS PLP yeast 0%, 2A StopGo -5%, NS1 inh 29% and RE007 growth inh 5%[18.4 µM].
For COc1ccccc1C(=O)COC(=O)COc1cccc2c1OC(C)(C)C2 the results were Lassa entry inh -12%, SARS PLP yeast -6%, 2A StopGo 0%, NS1 inh -72%, Marburg entry inh 4% and RE007 growth inh -21%.
COc1ccc(C(=O)NCCCCc2ccccc2)cc1 was read as Lassa entry inh -25%, 2A StopGo 7%, Marburg entry inh inconclusive and RE007 growth inh 22%.
Screening CCOc1ccc(/C=C/c2nc(C#N)c(N(C)C)o2)cc1 returned Lassa entry inh 21%[46.1 µM], Cruzain inh Det -2.9%, 2A StopGo 32%[activator], Cruzain inh noDet 9% and Marburg entry inh 7%[46.1 µM].
For CN=C(Nc1ccccc1)SC1CC(=O)N(c2cccc(OC)c2)C1=O (centres undefined) the results were SARS PLP yeast -1%, 2A StopGo -21%, NS1 inh 0% and RE007 growth inh 3%.
Screening CCOC(=O)C1=C(C)NC(C)=C(C(=O)OCC)C1C(=O)OCC(=O)c1ccc2c(c1)OCCO2 returned Lassa entry inh inconclusive, Cruzain inh Det -5.4%, SARS PLP yeast -5%, 2A StopGo -5%, NS1 inh -12%, Cruzain inh noDet inconclusive, Marburg entry inh -8%&-8% and RE007 growth inh inconclusive.
For COc1ccc(C(=O)C2CCCN(C(=O)c3cc4nc(C)cc(C)n4n3)C2)cc1F (centres undefined) the results were Lassa entry inh -16%, SARS PLP yeast -2%, 2A StopGo 13%, NS1 inh -4%, Marburg entry inh -11%[46.1 µM] and RE007 growth inh 2%.
`Cn1c(-c2ccc(F)cc2)cnc1NCc1cccc([N+](=O)[O-])c1` gave SARS PLP yeast 6%, 2A StopGo -18%, NS1 inh 21% and RE007 growth inh -8%.
Screening Cn1c(=O)cc(OCC(=O)N2CCN(c3cccc(C(F)(F)F)c3)CC2)c2ccccc21 returned Lassa entry inh -22%, Cruzain inh Det -22%, SARS PLP yeast 2%, 2A StopGo -20%, NS1 inh -37%, Cruzain inh noDet inconclusive, Marburg entry inh -19% and RE007 growth inh 0%.
Screening O=C(NNC(=O)C1CC=CCC1)c1cccc(Br)c1 (centres undefined) returned Lassa entry inh 8%, 2A StopGo 24%, Marburg entry inh -19% and RE007 growth inh -13%.
For Cc1nn(-c2ccccc2)c(N)c1C1(O)C(=O)N(C)c2ccccc21 (centres undefined) the results were Lassa entry inh 4%, Cruzain inh Det 0.2%, SARS PLP yeast 19%, 2A StopGo -10%, NS1 inh -24%, Cruzain inh noDet -7%, Marburg entry inh inconclusive and RE007 growth inh 1%.
Screening CNS(=O)(=O)c1ccc(N=Cc2c(C)[nH]n(-c3ccc(C)cc3C)c2=O)cc1 returned Lassa entry inh 16%, SARS PLP yeast 0%, 2A StopGo 0%, Marburg entry inh 13%[46.1 µM] and RE007 growth inh -5%.
COc1ccccc1CNc1ncnc2onc(-c3ccc(Cl)cc3)c12 was read as Lassa entry inh 2%[46.1 µM], Cruzain inh Det -2.4%, 2A StopGo -25%, Cruzain inh noDet 15% and Marburg entry inh 2%[46.1 µM].
`COc1cccc(-c2nc(CS(=O)CC(=O)N3CCN(c4cccc(C(F)(F)F)c4)CC3)c(C)o2)c1` (centres undefined) gave Lassa entry inh -22%[46.1 µM], Cruzain inh Det -12%, 2A StopGo inconclusive and Cruzain inh noDet inconclusive.
`COc1ccc(-c2cn(CCO)nc2-c2ccc(OC)cc2)cc1` gave Lassa entry inh -38%[46.1 µM], SARS PLP yeast -1%, 2A StopGo -10%, NS1 inh 0%, Marburg entry inh inconclusive and RE007 growth inh -15%.
`O=C(NC1CCCc2ccccc21)c1cccc(S(=O)(=O)N2CCN(c3ccccc3)CC2)c1` (centres undefined) gave Lassa entry inh -25%, Cruzain inh Det -2.0%, SARS PLP yeast inconclusive, 2A StopGo -26%, NS1 inh 11µM*, Cruzain inh noDet inconclusive, Marburg entry inh -44% and RE007 growth inh -8%.
`CCCn1c(SCc2cc(=O)oc3ccc4ccccc4c23)n[nH]c1=O` gave Lassa entry inh 2%, Cruzain inh Det -9.0%, SARS PLP yeast -3%, 2A StopGo -25%, NS1 inh -43%, Cruzain inh noDet -23%, Marburg entry inh inconclusive and RE007 growth inh 4%.
Screening N#CC1C(C#N)N2CCCN2C1c1ccc(Cl)cc1 (centres undefined) returned Lassa entry inh 1%, Cruzain inh Det -1.5%, SARS PLP yeast -17%, 2A StopGo -14%, NS1 inh 2%, Cruzain inh noDet -13%, Marburg entry inh 3% and RE007 growth inh -19%.
For CCCCN1C(=O)c2ccc(C(=O)Nc3c(N)n(CCCC)c(=O)n(C)c3=O)cc2C1=O the results were Lassa entry inh 3%, Cruzain inh Det 1.7%, SARS PLP yeast 9%, 2A StopGo -29%, NS1 inh -18%, Cruzain inh noDet -11%, Marburg entry inh 1%&1% and RE007 growth inh -3%.
For COc1ccc(NC(=S)NCc2ccco2)c(OC)c1 the results were Lassa entry inh 6%, Cruzain inh Det 6.1%, SARS PLP yeast 0%, 2A StopGo 6%, NS1 inh 1%, Cruzain inh noDet 3%, Marburg entry inh -2%[46.1 µM] and RE007 growth inh 3%.
For O=C(CCc1nc(-c2ccccc2F)no1)NC1CCCCCC1 the results were Lassa entry inh inconclusive, Cruzain inh Det -0.7%, SARS PLP yeast -9%, 2A StopGo inconclusive, NS1 inh -12%, Cruzain inh noDet 7%, Marburg entry inh 8% and RE007 growth inh -8%.
Screening COc1cc(NC(=O)CCCOc2cc(=O)n(C)c3ccccc23)cc(OC)c1OC returned Lassa entry inh -1%[46.1 µM], Cruzain inh Det 1.0%, 2A StopGo -3%, Cruzain inh noDet -7% and Marburg entry inh 12%[46.1 µM].
Screening CC(C)Cn1c(SCC(=O)Nc2ncccn2)nc2ccccc21 returned SARS PLP yeast -3%, 2A StopGo -11%, NS1 inh 1% and RE007 growth inh -16%.
For Cc1ccccc1Oc1ncccc1C(=O)/C(C#N)=C/N(C)C the results were Lassa entry inh 11%[14.3 µM], Cruzain inh Det -5.7%, SARS PLP yeast -3%, 2A StopGo -19%, NS1 inh 12%, Cruzain inh noDet -6%, Marburg entry inh 13% and RE007 growth inh 7%.

Compound activity: PubChem, National Center for Advancing Translational Sciences (NCATS)
